Source: PubChem
NS1 function inh: inhibitors of influenza NS1 protein function; 270,000 compounds, 0.4% hits; S. cerevisiae slowed by influenza A NS1, growth recovery by OD600; Potency, µM (highest dose often 46.1 µM), without a hit: at the top dose activity, positive = more growth; active means well fitted rising curve with a large enough effect; inconclusive means small, poorly fitted or top-dose-only effect; inactive means no such curve, though single readings can be large or run the other way; also: nearly all actives have a fitted effect of over 50% in size
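Recovery from NS1-induced slow growth read by OD600 in budding yeast switched to galactose assay medium (pH 6.0, -URA) at 1:100 dilution. Compound 23 nl per well; the matching strain lacking NS1 serves as control.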
Lassa entry inh: blocks Lassa virus binding to or entry into cells; Lassa virus pseudotype entry inhibition, cell reporter; control for the full effect not named in the record; Potency, µM (doses to about 37.9 µM), for the others: at the top dose activity change, negative = inhibition, hits mostly inhibitors; 300,000 compounds, 1.2% hits; AID 540256; active means well fitted inhibition curve with a large enough effect; inconclusive means small, poorly fitted or top-dose-only effect, or effect the other way; inactive means flat fitted curve, though single readings scatter; tested in HEK293 cells; also: % is scaled to controls: 0 for no effect and ±100 for the full control effect; nearly all actives have a fitted effect of over 50% in size; luciferase read-out
Cruzain noTriton: cruzain (T. cruzi) inhibition without detergent; P25779; purified cruzain, Z-FR-AMC fluorescence, no detergent; Potency, µM, inactives show max response, negative = inhibition, most hits filed as inhibitors; 200,000 compounds, 2.3% hits; AID 1476;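 also: plate controls were enzyme without inhibitor for no effect and buffer without enzyme for full effect; nearly all actives have a fitted effect of over 40% in size; top concentration of the series not given in the record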
Target sequence (P25779 123-467 limits assumed): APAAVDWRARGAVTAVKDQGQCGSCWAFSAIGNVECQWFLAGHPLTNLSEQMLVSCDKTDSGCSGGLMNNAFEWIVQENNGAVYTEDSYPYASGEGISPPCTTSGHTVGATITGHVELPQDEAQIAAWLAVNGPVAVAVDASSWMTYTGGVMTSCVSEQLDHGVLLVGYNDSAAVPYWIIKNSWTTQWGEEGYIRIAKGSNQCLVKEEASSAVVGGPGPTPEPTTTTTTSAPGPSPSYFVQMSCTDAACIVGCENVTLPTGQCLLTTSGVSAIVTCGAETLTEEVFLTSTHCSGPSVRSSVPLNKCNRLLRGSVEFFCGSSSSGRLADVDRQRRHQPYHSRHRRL
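Purified cruzain at 1.5 nM, pre-incubated 15 min with compound at room temperature in 100 mM sodium acetate pH 5.5, 5 mM DTT, 0.00005% Triton X-100. Reaction started with 2 uM Z-FR-AMC; AMC fluorescence increase over 60 s gives rate.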
2A StopGo: FMDV 2A StopGo reporter, luciferase signal. Potency, µM (titrated, usually from 57.9 µM), for the others: at the top dose signal change, negative = less light. 410,000 compounds, 1.2% hits. AID 1159524. human cells with a luciferase reporter of 2A StopGo recoding; control for the full effect not named in the record; active = well fitted falling curve with a large enough effect; inconclusive = small, poorly fitted or top-dose-only effect; inactive = no such curve, though single readings can be large or run the other way; tested in HEK293T cells; also: % is scaled to controls: 0 for no effect and ±100 for the full control effect; nearly all actives have a fitted effect of over 45% in size; luciferase light after 4 h
Marburg entry inh: blocks Marburg virus binding to or entry into cells; Marburg virus pseudotyped entry inhibition, cell reporter; control for the full effect not named in the record; about a third of the inactives were read at about 46 µM; Potency, µM (top dose mostly 37.8 µM), for inactives: top-dose activity change, negative = inhibition, hits mostly inhibitors; 300,000 compounds, 1.8% hits; AID 540276; active = well fitted inhibition curve with a large enough effect; inconclusive = small, poorly fitted or top-dose-only effect, or effect the other way; inactive = flat fitted curve, though single readings scatter; tested in HEK293 cells; about a fifth of its hits are not listed in these tables; also: % is scaled to controls: 0 for no effect and ±100 for the full control effect; luciferase read-out
SARS PLP yeast: SARS-CoV PLP inhibition in yeast; Potency, µM (highest dose often 32.9 µM), inactives show at the top dose activity, positive = growth rescue; S. cerevisiae expressing SARS-CoV PLpro, growth rescue; control for the full effect not named in the record; 330,000 compounds, 0.19% hits; active means well fitted rising curve with a large enough effect; inconclusive means small, poorly fitted or top-dose-only effect; inactive means no such curve, though single readings can be large or run the other way; also: 0% is about no effect; nearly all actives have a fitted effect of over 55% in size; growth read by luminescence after 48 h
RE007 growth inh: less growth of the S. pombe RE007 Vpr strain. S. pombe RE007 Vpr strain, BacTiter-Glo ATP luminescence, 24 h; control for the full effect not named in the record. Potency, µM (titrated, usually from 92.2 µM), for inactives: top-dose activity change, negative = less growth. 360,000 compounds, 0.21% hits. AID 651644; active = well fitted falling curve with a large enough effect; inconclusive = small, poorly fitted or top-dose-only effect; inactive = no such curve, though single readings can be large or run the other way;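 also: % is scaled to controls: 0 for no effect and ±100 for the full control effect; nearly all actives have a fitted effect of over 50% in size; the assay follows cell death caused by Vpr and the record does not say whether a fall means rescue or toxicity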
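Fission yeast strain RE007, carrying one chromosomally integrated HIV-1 vpr copy, was seeded at OD 0.01 in PMG+AL medium with 23 nL pinned compound. After 24 h at 30 °C and 99% humidity, viability was read by BacTiter-Glo luminescence.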
Cruzain inh Det: blocks cruzain activity in presence of Triton detergent; purified cruzain, Z-FR-AMC fluorescence, 0.01% Triton; Potency, µM, for the others: max response, negative = inhibition, most hits filed as inhibitors; 200,000 compounds, 0.43% hits; AID 1478;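 also: plate controls were neutral wells for no effect and buffer without enzyme for full effect; nearly all actives have a fitted effect of over 40% in size; top concentration of the series not given in the record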
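In this qHTS format, compounds are incubated with 1.5 nM cruzain for 15 min at room temperature before 2 uM Z-FR-AMC is added. Release of AMC is followed at 360/450 nm, and progress is taken as the 60 s fluorescence difference.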
* marks the source's active call; other numbers are inactive results; ? = inconclusive; . = not tested or not shown; & = joins results of further samples; [ ] = dose if it differs, or a comment. Unless noted, calls follow the shape of the dose curve; as a rule, active = well fitted curve in the direction sought with a large enough effect; inconclusive = small, poorly fitted or top-dose-only effect, or another doubt; inactive = no such curve, though single readings can be large; an effect the other way counts as inactive or inconclusive. Potency is read from the fitted curve at half-maximal effect.

smiles	NS1 function inh	Lassa entry inh	Cruzain noTriton	2A StopGo	Marburg entry inh	SARS PLP yeast	RE007 growth inh	Cruzain inh Det
Fc1cccc(/C=N/Nc2ncnc3nc[nH]c23)c1	-2%	-7%	-4%	84%[activator]	-9%	-13%	-13%	-8.5%
Cc1cc(C)n(-c2nc3ccccc3nc2N2CCN(C(=O)c3ccc(Cl)cc3)CC2)n1	-40%	?	8%	.	?	-5%	1%	-19%
Cc1cc(Cl)ccc1NC(=O)CCC(=O)N/N=C/c1cccnc1	11%	16%[46.1 µM]	.	6%	2%[46.1 µM]	-3%	5%	.
COc1ccccc1CNC(=O)CCCN1C(=O)NC2(CCCC2)C1=O	.	-10%	.	-24%	0%[46.1 µM]	-3%	-10%	.
O=C(NC1(C(F)(F)F)C(=O)Nc2c1c(=O)[nH]c(=O)n2Cc1ccco1)C1CC1 (stereo not given)	2%	-1%	11%	-23%	2%	9%	4%	-0.1%
Cn1cnc2c(NC3CCCC3)ncnc21	-4%	.	6%	2%	25%&25%&25%&25%&25%	.	.	3.1%
CCNS(=O)(=O)c1ccc(CCC(=O)N2CCN(c3ccccc3F)CC2)cc1	10%	-20%	.	-15%	-13%	3%	-8%	.
COc1cccc(Nc2c(F)c(OC)c(F)c(F)c2C(=O)O)c1	5%	9%	5%	-19%	?	7%	-6%	5.1%
NC(=O)CC[C@H](NC(=O)c1ccc(F)cc1)C(=O)OCC(=O)NCc1ccc2c(c1)OCO2	.	-1%	.	-11%	-1%	6%	2%	.
CN(C)Cc1ccccc1Cc1ccccc1	20%	7%	-1%	-3%	-22%	2%	-5%	0.4%
N#Cc1c(-c2ccccc2Cl)c2c([nH]c1=O)-c1ccccc1OC2	6%	-6%	.	-4%	-8%[46.1 µM]	3%	-2%	.
O=C(Nc1ccc(F)cc1)c1cccnc1	-8%	.	.	4%	.	-3%	-12%	.
COc1cccc(NC(=O)CNC(=O)Cn2c(C)cc3ccccc3c2=O)c1	.	-2%[46.1 µM]	5%	-5%	?	.	.	-0.2%
Cc1cccc(CNC(=O)CCn2ccc3cc(S(=O)(=O)N4CCCC4)ccc32)c1	-1%	2%[46.1 µM]	-10%	-5%&9%	.	34%	2%	-4.1%
Cc1ccc(-c2[nH]ncc2C(=O)c2ccc(Br)cc2)c(O)c1	-45%	-21%	.	-16%	?	-6%	-1%	.
CNc1nc(NC)c2cn[nH]c2n1	.	-3%[46.1 µM]	.	-20%	7%	.	12%	.
N=C1c2ccccc2CN1NC(=O)c1ccc(Br)o1	1%	.	.	14%	.	5%	-7%	.
CCCOc1ccc(C2C(C(=O)c3ccc(C)o3)=C(O)C(=O)N2Cc2ccco2)cc1 (stereo not given)	-6%	.	.	-5%	.	-2%	1%	.
CC1(C)CC(=O)C=C(Nc2cccc(O)c2)C1	-6%	-4%	-8%	?	-5%	1%	5%	0.1%
COc1ccc(Cl)cc1NC(=O)C/C(C)=N/NC(=O)CCc1ccccc1	21%	?	.	-14%	-24%[46.1 µM]	-4%	-13%	.
O=C(CCc1ccccc1)NNC(=O)c1cc(Cl)ccc1O	-3%	-11%[46.1 µM]	.	3%	-7%[46.1 µM]	12%	8%	.
CC(C)COC(=O)CCn1[nH]c(=O)c2ccccc2c1=O	-15%	19%	2%	15%	-5%	0%	-21%	0.6%
COc1ccc(C(=O)NNC(=O)C2=NN(c3ccccc3)C(=O)CC2)cc1	2%	.	.	32%	.	0%	4%	.
C[C@@H]1O[C@@H](O[C@H]2[C@H](Oc3cc(O)c4c(c3)O[C@H](c3ccc(O)cc3)CC4=O)O[C@H](CO)[C@@H](O)[C@@H]2O)[C@H](O)[C@H](O)[C@H]1O	-4%	.	10%	-16%	.	2%	9%	-0.6%
COc1cccc(NC(=O)c2c(C)nn(-c3cccc(C)c3)c2-n2cccc2)c1	.	-11%[46.1 µM]	3%	0%	.	.	.	-1.1%
CCc1nnc(NS(=O)(=O)c2ccc(NC(=S)NC(=O)/C=C/c3ccc(F)cc3)cc2)s1	-20%	0%	3%	?	6%	2%	-12%	?
O=C(CCS(=O)(=O)c1cc(Br)cc2c1N(C(=O)C1CC1)CC2)N1CCN(c2ccccn2)CC1	-7%	.	.	6%	.	-1%	1%	.
CCCN1CC(=O)N2Cc3[nH]c4ccccc4c3C[C@H]2C1=O	1%	.	.	-2%	.	1%	-8%	.
O=C1C(Cc2ccccc2)SC(=Nc2ccccc2)N1c1ccccc1 (stereo not given)	12%	12%	-3%	0%	3%	-4%	11%	-3.5%
Cc1nc2sccn2c(=O)c1S(=O)(=O)NC(C)c1ccccc1 (stereo not given)	-12%	.	.	7%	.	2%	10%	.
O=C(Nc1ccc2nc(SCC(=O)N3CCOCC3)sc2c1)c1ccc(Br)cc1	.	1%[46.1 µM]	?	?	?	.	.	-2.4%
COc1c(C(C)C)cc(NC(C)=O)cc1C(C)C	0%	-9%	13%	-13%	-14%[46.1 µM]	-1%	-1%	-0.6%
CCOc1ccc(CCNC(=O)CN2C(=O)c3cccnc3Oc3ccc(C)cc32)cc1OCC	9%	-16%[46.1 µM]	.	-12%&-4%	.	-7%	5%	.
Cn1ccs/c1=N\C(=O)Nc1ccccc1	-7%	.	.	48%[activator]	.	-2%	3%	.
Cc1onc(-c2c(Cl)cccc2Cl)c1C(=O)N1C(C)CCCC1C (stereo not given)	.	2%[46.1 µM]	.	-12%	-21%[46.1 µM]	.	3%	.
O=C1/C(=C\c2ccc(Cl)cc2Cl)N2CCC1CC2	-39%	18%	.	-1%	18%	0%	-20%	.
Nn1cc(-c2ccccc2)nc1SCC(=O)NCCN1C(=O)CSC1=O	-3%	15%	-6%	24%	11%	-3%	12%	1.4%
CC1(C)Cc2cccc(OCC(=O)NCc3ccccc3)c2O1	-18%	.	.	-11%	.	18%	1%	.
Cc1[nH]c(=S)[nH]c(=O)c1Cc1ccccc1	-1%	-10%	-13%	.	1%&1%	2%	4%	1.9%
COC(=O)c1nn(-c2ccc(OC)cc2)c(=O)cc1Sc1ccc(C)cc1	.	0%[46.1 µM]	.	-17%	-4%[46.1 µM]	0%	1%	.
COc1ccc(OC)c(NC(=O)CSc2nnc(Cc3cccn3C)n2CCc2ccccc2)c1	-6%	35%[14.3 µM]	?	16%	-6%&-10%	-5%	-10%	-4.3%
CC12C=CC3(CN(Cc4ccccc4)C(=O)C3C1C(=O)NC1CC1)O2 (stereo not given)	?	3%	4%	-14%	10%	3%	-3%	2.4%
COc1cc(C2c3c(-c4ccccc4O)n[nH]c3C(=O)N2Cc2ccncc2)cc(OC)c1OC (stereo not given)	.	-18%[46.1 µM]	-2%	-3%	17%[46.1 µM]	.	.	3.1%
CN(CC(=O)Nc1ccc(F)cc1)C(=O)COC(=O)c1cc(S(=O)(=O)N(C)C)ccc1N1CCCC1	.	-3%	.	0%	?	-2%	0%	.
CCOc1ncccc1C(=O)N1CCN(Cc2ccc3c(c2)OCO3)CC1	-4%	2%	5%	-23%	8%[46.1 µM]	-5%	-5%	8.7%
O=C(Oc1ccc(C(=S)N2CCOCC2)cc1)c1ccccc1[N+](=O)[O-]	-4%	.	.	28%	.	3%	16%	.
COc1ccc(Cl)cc1N(C)C(=O)c1ccc2c(=O)n3c(nc2c1)CCCCC3	.	-6%[46.1 µM]	12%	-26%	3%[46.1 µM]	.	.	-3.3%
Cn1c(=O)[nH]c(=O)c2c1nc(SCC(=O)O)n2CCCc1ccccc1	3%	.	.	-9%	.	-1%	9%	.
O=C(Nc1cccc(S(=O)(=O)N2CCOCC2)c1)c1ccc(N2CCOCC2)c([N+](=O)[O-])c1	0%	-9%	13%	?	?	-31%	17%	-6.6%
COCCN(C(=O)COC(=O)/C=C/c1ccc(C)o1)c1c(N)n(Cc2ccccc2)c(=O)[nH]c1=O	?	-22%	.	17%	8%	1%	13%	.
CN(C)CCNC(=O)c1cccc2ccc(-c3ccc(-c4ccccc4)cc3)nc12	.	?	.	0%	?	.	-4%	.
CC(C)NC(=O)C1CCN(Cc2cnn(-c3ccccc3)c2-n2cccc2)CC1	0%	6%	6%	-21%	3%	3%	10%	3.5%
COc1ccc(NC(=O)COC(=O)/C=C/c2ccccc2[N+](=O)[O-])cc1OC	1%	-22%	2%	-8%	4%	6%	-8%	-9.7%
CN(c1cccc(NS(=O)(=O)c2cccs2)c1)S(C)(=O)=O	2%	16%	-9%	-5%	-28%	-2%	-2%	7.5%
COC(=O)c1cc(=O)nc2sc(-c3ccc(F)cc3)nn12	-44%	1%	-4%	-7%	3%	-3%	-22%	-1.2%
NC(=O)CSc1ncnc2c1cnn2Cc1ccccc1	16%	10%	-5%	-18%	-3%	0%	-8%	-2.2%

Next part
smiles	NS1 function inh	Lassa entry inh	Cruzain noTriton	2A StopGo	Marburg entry inh	SARS PLP yeast	RE007 growth inh	Cruzain inh Det
CCOC(=O)c1cnc(-n2[nH]c(C)c(Cc3ccccc3)c2=O)[nH]c1=O	.	-2%	.	-17%	5%[46.1 µM]	?	1%	.
CCOC(=O)C(C)Oc1ccc(NC(=O)C(Cl)Cl)cc1 (stereo not given)	6%	1%	.	26%	3%[46.1 µM]	-1%	12%	.
COc1ccc(OC)c(/C=C/C(=O)NC2=NCCS2)c1	15%	-2%	.	15%	5%	0%	1%	.
Cc1c(C(=O)N2CCCC2)c(S(=O)(=O)Nc2cccc(Br)c2)c(C)n1C	7%	.	.	32%[activator]	.	2%	-3%	.
CCCCC1CCC(C(=O)N(CCOC)c2c(N)n(CCCC)c(=O)[nH]c2=O)CC1 (stereo not given)	.	9%	.	-17%	-10%	-3%	12%	.
O=C(O)CCc1nnc(SCC(=O)Nc2ccc(Cl)c(C(F)(F)F)c2)[nH]c1=O	.	0%	.	-22%	1%[46.1 µM]	1%	-2%	.
CC(C)OC(=O)CC1C(=O)NCCN1C(=O)COc1ccc(C(C)(C)C)cc1 (stereo not given)	-4%	-8%[46.1 µM]	.	-22%	24%[46.1 µM]	4%	3%	.

Compounds as they come; any-hit rate near 4.6%.
